# Screening results deposited in PubChem BioAssay by Broad Institute.
# AF4-AF9 inh: blocks AF4 peptide binding to human AF9 | AlphaScreen, biotin-AF4 peptide binding to FLAG-AF9 | inhibition, % at 10 µM | hit rate 0.47% among 350,000 | AID 651704;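 active means every replicate reaching a set inhibition limit, whatever the replicate mean, cut at about 25% in these data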;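 further: 0% = plate neutral control median and 100% = total signal loss; the record names both 10 and 1 µM as test concentration; the first replicate is given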
# Target sequence (P42568 whole entry, looked up): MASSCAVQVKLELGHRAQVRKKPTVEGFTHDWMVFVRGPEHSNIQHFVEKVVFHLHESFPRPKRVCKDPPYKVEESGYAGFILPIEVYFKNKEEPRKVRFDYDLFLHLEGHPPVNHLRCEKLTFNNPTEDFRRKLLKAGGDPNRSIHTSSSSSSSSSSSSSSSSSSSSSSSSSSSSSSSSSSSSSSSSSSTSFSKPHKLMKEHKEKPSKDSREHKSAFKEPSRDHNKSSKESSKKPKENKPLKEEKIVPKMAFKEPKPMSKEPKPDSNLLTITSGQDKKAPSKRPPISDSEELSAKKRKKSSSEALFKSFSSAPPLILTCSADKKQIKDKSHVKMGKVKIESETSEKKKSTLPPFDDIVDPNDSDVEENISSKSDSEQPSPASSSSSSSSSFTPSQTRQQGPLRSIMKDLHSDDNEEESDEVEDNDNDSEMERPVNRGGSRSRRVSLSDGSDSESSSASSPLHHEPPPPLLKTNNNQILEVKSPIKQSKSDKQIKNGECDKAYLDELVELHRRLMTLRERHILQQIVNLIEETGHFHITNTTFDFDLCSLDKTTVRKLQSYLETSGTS
# FGF22 binding: binders of recombinant human FGF22 by thermal shift. calls only at 9.99 µM. Q9HCT0. hit rate 1.5% among 340,000. SYPRO orange fluorescence; percent of sucrose octasulfate shift, DMSO zero;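 active means melting point raised past a set limit in the mean and every replicate; three in four hits are not shown here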
# Target sequence (Q9HCT0 whole entry, looked up): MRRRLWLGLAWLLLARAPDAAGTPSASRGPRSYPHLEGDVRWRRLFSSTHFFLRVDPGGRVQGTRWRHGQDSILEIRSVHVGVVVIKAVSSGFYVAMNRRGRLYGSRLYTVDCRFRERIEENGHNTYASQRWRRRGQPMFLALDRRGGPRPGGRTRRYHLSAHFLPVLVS
# rRNA inh HTS: selective bacterial rRNA inhibition in E. coli; hit rate 1.6% among 350,000; GFP signal change (wild-type ribosome), % (no concentration beside the values); AID 720706; E. coli WT GFP vs humanized-ribosome RFP mutants, fluorescence, 24 h; hits give low values; DMSO median 0, no signal -100;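 active means significant combined selectivity score with lowered wild-type GFP, culture density cut under 30%, mutant RFP and density less affected; inactive means any of these conditions unmet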; further: one replicate is shown; some compounds called inactive have numbers as strong as hits
# rRNA inh HTS OD600: second read-out of rRNA inh HTS, no call of its own (marks repeat the call); OD600 change, %; measured here: OD600 growth;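 optical density of the mix in the first replicate; 0 = DMSO median and -100 = no signal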
# rRNA inh HTS RFP: also measured in rRNA inh HTS; calls as there; RFP signal change, %; measured here: RFP humanized mutant strains;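 first replicate; 0 = DMSO median and -100 = no signal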
# The depositor's hits bear a star; i = inactive; + = active, no number. A portion of the library. The share of hits here may be higher or lower than overall.
structure,rRNA inh HTS OD600,rRNA inh HTS RFP,FGF22 binding,rRNA inh HTS,AF4-AF9 inh
C[C@H]1CN([C@@H](C)CO)C(=O)Cc2cc(NS(=O)(=O)c3cccs3)ccc2O[C@@H]1CN(C)C(=O)NC1CCCCC1,-1,1.3,i,4,-1.9
C/C=C/c1ccc2c(c1)O[C@@H](CN(C)C(=O)Nc1cccc(F)c1)[C@H](C)CN([C@H](C)CO)S2(=O)=O,-22,2.9,i,-10,4.9
C[C@H]1CN([C@@H](C)CO)C(=O)c2ccccc2-c2ccccc2CO[C@H]1CN(C)Cc1ccc2c(c1)OCO2,-34,2.3,i,-6,5.2
CCCNC(=O)N1C[C@@H]2[C@H](c3ccccc31)[C@H](CO)N2CC1CCCC1,-8,-2.9,i,-2,-3.0
COc1ccc(S(=O)(=O)Nc2ccc3c(c2)CC(=O)N([C@@H](C)CO)C[C@H](C)[C@H](CN(C)C(=O)NC2CCCCC2)O3)cc1,-4,-1.3,i,0,-0.6
COc1ccc(-c2ccc3n(c2=O)C[C@@H]2[C@@H](CO)[C@H](C(=O)Nc4ccccc4)[C@H]3N2C)cc1,-1,-2.7,i,-5,0.2
O=C(C(=O)N1CCN(c2ccccc2)CC1)c1ccccc1,-11,2.1,i,-9,-1.4
C[C@@H]1CN([C@H](C)CO)C(=O)c2cc(NC(=O)Nc3ccccc3)ccc2O[C@@H](C)CCCCO[C@@H]1CN(C)C(=O)CCC(F)(F)F,1,-2.0,i,0,-2.1
C[C@H](CO)N1C[C@H](C)[C@H](CN(C)Cc2ccc3c(c2)OCO3)OCCCC[C@H](C)Oc2ccc(NC(=O)CCCN(C)C)cc2C1=O,7,-3.5,i,2,2.3
COc1ccc2c3c(n(C)c2c1)[C@@H](CO)N(CC1CC1)CC31CN(S(=O)(=O)c2cn(C)cn2)C1,9,-1.8,i,-3,0.8
C[C@@H]1CN([C@H](C)CO)C(=O)c2cccc(NS(=O)(=O)c3ccc(Cl)cc3)c2O[C@H]1CN(C)C(=O)NC1CCCCC1,2,0.6,i,1,0.3
CCCN1C[C@H](C)[C@@H](OC)CN(C)C(=O)c2ccc(NC(=O)c3cccc(F)c3)cc2OC[C@@H]1C,-9,5.5,i,-3,39*

# (further entries)
structure,rRNA inh HTS OD600,rRNA inh HTS RFP,FGF22 binding,rRNA inh HTS,AF4-AF9 inh
Cc1noc(C)c1S(=O)(=O)Nc1ccc2c(c1)C(=O)N([C@H](C)CO)C[C@H](C)[C@H](CN(C)Cc1ccc(C(=O)Nc3ccccc3N)cc1)OCCCC[C@@H](C)O2,0,2.3,i,0,2.2
Cc1ccc(-c2ccc([C@@H]3[C@@H](CO)N4CCCCN(S(=O)(=O)c5ccccc5C)C[C@H]34)cc2)cc1,2,5.0,i,-6,0.7
CC(C1=C(CCN(C)C)Cc2ccccc21)c1ccccn1 (stereo not given),7,3.6,i,26,0.8
C[C@H](CO)N1C[C@H](C)[C@H](CN(C)C(=O)C2CCC2)Oc2ncc(-c3ccc(F)cc3)cc2C1=O,-1,-2.4,i,5,-2.5
COc1ccc(NC(=O)N(C)C[C@H]2OCCCC[C@@H](C)Oc3ccc(NS(=O)(=O)c4ccc(F)cc4)cc3C(=O)N([C@@H](C)CO)C[C@H]2C)cc1,14,0.7,i,2,3.2
Cc1cc(C(=O)CCC(=O)N(C)CC(=O)Nc2ccc(OC(F)(F)F)cc2)c(C)s1,5,0.5,i,7,-0.3
C[C@H](CO)N1C[C@H](C)[C@H](CN(C)S(=O)(=O)c2cccs2)Oc2c(NC(=O)C3CCOCC3)cccc2C1=O,8,1.3,i,-2,-2.0
COc1ccc(C2=Nc3ccccc3NC(=O)C2N(Cc2ccccc2)C(=O)C2=NNC(=O)CC2)cc1 (stereo not given),-18*,0.6*,i,-23*,3.4
COc1ccc(S(=O)(=O)Nc2cccc3c2O[C@H](CN(C)CC2CCCCC2)[C@@H](C)CN([C@@H](C)CO)C3=O)cc1,4,-0.7,i,-1,-1.5
O=C(C[C@H]1CC[C@@H]2[C@H](COC[C@@H](O)CN2S(=O)(=O)c2cccc(Cl)c2)O1)Nc1ccc(-c2ccccc2)cc1,-21,15,+,0,-2.5
CC(C)NC(=O)Nc1ccc2c(c1)C(=O)N([C@H](C)CO)C[C@H](C)[C@H](CN(C)C(=O)Nc1ccc(F)cc1)OCCCC[C@H](C)O2,-3,-0.9,i,0,-1.7
COc1ccc(NC(=O)N[C@H]2CC[C@H](CCn3cc(-c4ccc(F)cc4)nn3)O[C@H]2CO)cc1,5,-1.7,i,3,-11

# Reprinted at random: 4 compounds from above, in no set order.
structure,rRNA inh HTS OD600,rRNA inh HTS RFP,FGF22 binding,rRNA inh HTS,AF4-AF9 inh
COc1ccc(NC(=O)N(C)C[C@H]2OCCCC[C@@H](C)Oc3ccc(NS(=O)(=O)c4ccc(F)cc4)cc3C(=O)N([C@@H](C)CO)C[C@H]2C)cc1,14,0.7,i,2,3.2
COc1ccc(NC(=O)N[C@H]2CC[C@H](CCn3cc(-c4ccc(F)cc4)nn3)O[C@H]2CO)cc1,5,-1.7,i,3,-11
C[C@H](CO)N1C[C@H](C)[C@H](CN(C)C(=O)C2CCC2)Oc2ncc(-c3ccc(F)cc3)cc2C1=O,-1,-2.4,i,5,-2.5
Cc1ccc(-c2ccc([C@@H]3[C@@H](CO)N4CCCCN(S(=O)(=O)c5ccccc5C)C[C@H]34)cc2)cc1,2,5.0,i,-6,0.7

# New compounds follow:
structure,rRNA inh HTS OD600,rRNA inh HTS RFP,FGF22 binding,rRNA inh HTS,AF4-AF9 inh
CO[C@@H]1CN(C)C(=O)c2cc(NC(=O)c3ccccc3)ccc2OC[C@@H](C)N(C)C[C@H]1C,2,0.5,i,1,-2.9
Cc1ccc(S(=O)(=O)N(C)C[C@H]2Oc3ccc(NC(=O)C4CCCCC4)cc3CC(=O)N([C@H](C)CO)C[C@@H]2C)cc1,-9,4.8,i,-1,1.5
Cc1noc(C)c1S(=O)(=O)N(C)C[C@@H]1Oc2c(NC(=O)c3nc4ccccc4s3)cccc2C(=O)N([C@@H](C)CO)C[C@@H]1C,-9,1.0,i,-5,4.0
O=C(COC(=O)CCC1CCCC1)Nc1cc(S(=O)(=O)N2CCOCC2)ccc1Cl,4,-2.7,i,0,7.7
CN(C)C(=O)[C@H]1[C@H](CO)[C@H]2Cn3c(ccc(C4=CCCCC4)c3=O)[C@H]2N1Cc1ccccn1,-8,-2.3,i,-5,-0.9
C[C@@H]1CCCCO[C@@H](CN(C)C(=O)c2ccncc2)[C@H](C)CN([C@H](C)CO)C(=O)c2cc(NS(=O)(=O)c3ccccc3)ccc2O1,4,-0.9,i,-1,0.7
CC1(C)CC(NC(=O)c2cccc(S(=O)(=O)Nc3cccc(Cl)c3)c2)CC(C)(C)N1,-4,1.7,i,-4,1.6
CN(C)CCN1CCN(C2CN(Cc3ccccc3)S(=O)(=O)C2)CC1 (stereo not given),16,1.0,i,18,-2.3
COCC#Cc1cnc2c(c1)C(=O)N([C@@H](C)CO)C[C@H](C)[C@@H](CN(C)Cc1ccc(F)cc1)O2,16,-2.1,i,8,1.1
C[C@H](NC(=O)[C@@H]1[C@@H](CO)[C@@H]2Cn3c(cccc3=O)[C@H]1N2C(=O)C1CCC1)c1ccccc1,-5,-2.4,i,0,-2.0
C[C@H]1CN([C@@H](C)CO)C(=O)c2cc(NC(=O)Nc3ccc(C(F)(F)F)cc3)ccc2O[C@H]1CN(C)CC1CC1,-8,-2.8,i,-1,7.1
C[C@@H]1CN([C@@H](C)CO)C(=O)c2cc(C#CC3CC3)cnc2O[C@H]1CN(C)C(=O)c1ccc(F)cc1,4,-0.5,i,2,-0.9

# More compounds.
structure,rRNA inh HTS OD600,rRNA inh HTS RFP,FGF22 binding,rRNA inh HTS,AF4-AF9 inh
CN(C)CC#Cc1ccc([C@H]2[C@H]3CN(C(=O)Nc4ccccc4F)CCCCN3[C@H]2CO)cc1,3,3.1,i,-1,2.1
O=C(O)c1ccccc1C=NN1CCCCCC1,6,0.6,i,4,-5.2
C[C@H](CO)N1C[C@H](C)[C@H](CN(C)S(C)(=O)=O)OCCCC[C@H](C)Oc2ccc(NC(=O)CCCN(C)C)cc2C1=O,2,-4.0,i,-1,-12
C[C@H](O)C#Cc1cnc2c(c1)C(=O)N([C@@H](C)CO)C[C@H](C)[C@@H](CN(C)C(=O)Cc1ccncc1)O2,8,2.3,i,1,-2.0
COc1ccc(CN(C)C[C@@H]2Oc3c(NC(=O)C4CCOCC4)cccc3C(=O)N([C@H](C)CO)C[C@H]2C)cc1,9,1.8,i,-1,1.4
O=C(C[C@@H]1C[C@@H]2c3cc(NC(=O)CC4CC4)ccc3O[C@@H]2[C@H](CO)O1)NCc1ccccc1,2,-1.2,i,1,-0.4
Cc1ccc(S(=O)(=O)N[C@H]2C=C[C@@H](CC(=O)N3CCN(c4ccccc4)CC3)O[C@@H]2CO)cc1,-4,0.2,i,-4,-0.7
C[C@H]1CN([C@@H](C)CO)C(=O)c2cc(NS(=O)(=O)c3cccs3)ccc2O[C@@H]1CN(C)S(=O)(=O)c1cn(C)cn1,0,-1.9,i,7,-0.2
C[C@@H]1CCCCO[C@@H](CN(C)Cc2ccccc2)[C@H](C)CN([C@H](C)CO)C(=O)c2cc(NC(=O)Nc3ccc4c(c3)OCO4)ccc2O1,-1,1.6,i,2,31*
OC[C@@H]1CN(Cc2cccs2)C[C@H](n2cnc3c(NCc4ccncc4)ncnc32)O1,4,2.4,i,7,-0.2
CC(C)NC(=O)Nc1ccc2c(c1)C(=O)N([C@H](C)CO)C[C@H](C)[C@@H](CN(C)S(C)(=O)=O)OCCCC[C@@H](C)O2,6,-1.4,i,3,-7.9
CNC[C@H]1Oc2ccc(NC(=O)NC3CCCCC3)cc2CC(=O)N([C@H](C)CO)C[C@@H]1C,7,-1.7,i,2,-5.0

# Next part.
structure,rRNA inh HTS OD600,rRNA inh HTS RFP,FGF22 binding,rRNA inh HTS,AF4-AF9 inh
Clc1cccc(Cc2c(-c3ccco3)nc3ccc(Cl)cn23)c1,3,5.9,+,-4,-0.3
C[C@@H]1CN([C@@H](C)CO)C(=O)c2cc(-c3ccccc3)cnc2O[C@@H]1CN(C)Cc1ccccn1,1,-2.0,i,1,-19
COc1ccccc1CN1[C@H](CO)[C@H]2c3ccccc3N(C(=O)c3cccnc3)C[C@H]21,7,0.3,i,1,-5.6
COc1ccccc1[C@@H]1C(c2cccc(C)c2)=NN(c2ccc(Br)cc2)[C@H]1C(=O)N1CCOC1=O,11,-5.2,i,-1,-2.3
COc1c(C)cc(C(O)c2ncc(-c3ccccc3)[nH]2)cc1C (stereo not given),8,3.6,i,10,3.7
COc1ccc2c3c(n(C)c2c1)[C@H](CO)N(C(=O)NC(C)C)CC31CN(CC2CC2)C1,2,-0.4,i,5,3.3
CCCNC(=O)N1CC2(CCN(C(=O)C3CCCC3)CC2)c2c([nH]c3cc(OC)ccc23)[C@H]1CO,1,1.5,i,-4,0.4
CNC(=O)C[C@H]1C(=O)N(C2CCCCC2)C[C@@H]1CSC,14,4.5,i,3,-2.7
COC(=O)C[C@H]1CC[C@H]2[C@@H](COc3ccc(NS(=O)(=O)c4ccccc4Cl)cc3C(=O)N2C)O1,7,-2.1,i,2,0.3
CC1(C(=O)Nc2cccc3c2CCCC3)CCN1C(=O)CCC1CCCC1 (stereo not given),-59,16,i,-10,-1.6
COc1cccc(NC(=O)N[C@H]2C=C[C@H](CC(=O)N3CCCCC3)O[C@@H]2CO)c1,-2,2.1,i,-1,-1.7
C[C@@H]1CN([C@H](C)CO)C(=O)c2cc(NC(=O)Cc3cn(C)c4ccccc34)ccc2O[C@@H]1CN(C)S(=O)(=O)c1cn(C)cn1,6,2.6,i,3,0.8

# Remaining list, next part.
structure,rRNA inh HTS OD600,rRNA inh HTS RFP,FGF22 binding,rRNA inh HTS,AF4-AF9 inh
CN1c2ccc(C#Cc3cccnc3)cc2[C@@H]2[C@@H](CCN2S(=O)(=O)c2ccccc2)[C@H]1CO,-4,6.0,i,-6,-6.4
COc1ccccc1C(=O)Nc1ccc2c(c1)C(=O)N(C)C[C@@H](OC)[C@@H](C)CN(C)[C@H](C)CO2,0,0.7,i,-2,-2.3
COc1ccc(S(=O)(=O)Nc2cccc3c2O[C@H](CN(C)S(C)(=O)=O)[C@H](C)CN([C@@H](C)CO)C3=O)cc1,4,0.5,i,-2,-1.7
C[C@@H]1CCCCO[C@@H](CN(C)S(=O)(=O)c2ccc(F)cc2)[C@H](C)CN([C@H](C)CO)C(=O)c2cc(NC(=O)Nc3cccc4ccccc34)ccc2O1,5,2.0,i,-2,0.6
COc1ccccc1NC(=O)N[C@@H]1CC[C@H](CCNC(=O)c2ccc3c(c2)OCO3)O[C@@H]1CO,4,3.5,i,-1,-3.9
O=C(C[C@@H]1CC[C@H]2[C@@H](COC[C@H](O)CN2C(=O)Nc2cccc(F)c2)O1)NCCCN1CCOCC1,-3,-3.2,i,-6,1.2
COc1ccc(-c2coc3c(C(=O)NC4CCCCC4)cccc23)c(C)c1,6,3.3,i,-6,-1.6

# Structures shown so far that have an NH in an aromatic ring:
structure,rRNA inh HTS OD600,rRNA inh HTS RFP,FGF22 binding,rRNA inh HTS,AF4-AF9 inh
COc1c(C)cc(C(O)c2ncc(-c3ccccc3)[nH]2)cc1C (stereo not given),8,3.6,i,10,3.7
CCCNC(=O)N1CC2(CCN(C(=O)C3CCCC3)CC2)c2c([nH]c3cc(OC)ccc23)[C@H]1CO,1,1.5,i,-4,0.4
